# rRNA inh HTS = inhibits bacterial ribosomal RNA function over humanized ribosomes; E. coli WT GFP vs humanized-ribosome RFP mutants, fluorescence, 24 h; stronger effect = lower value; DMSO median 0, no signal -100; GFP signal change (wild-type ribosome), % (no concentration beside the values); 350,000 compounds, 1.6% hits;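 active = significant combined selectivity score with lowered wild-type GFP, culture density cut under 30%, mutant RFP and density less affected; inactive = any of these conditions unmet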; also: one replicate is shown; some compounds called inactive have numbers as strong as hits
# B2AR ag = human beta-2 adrenergic receptor agonism by FAP | AID 504454 | 340,000 compounds, 0.43% hits | Am2.2-beta2AR cells, FAP receptor internalization, flow cytometry; reference of the scale not given here | response, % (test concentration not listed);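 active = response above a set limit, near 3 SD of response in nonfluorescent compounds, cut at about 42% in these data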;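 also: stock transfer was 100 nL into about 11 µL; a reference agonist was the positive control; negative values mostly stem from fluorescent compounds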
# UCH37 DUB inh = inhibitors of human deubiquitinating enzyme UCH37. Q9Y5K5. purified proteasome/UCH37, Ub-AMC cleavage fluorescence. inhibition, % (concentration not given with the values). 330,000 compounds, 0.33% hits;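 active = mean of two replicates above 20%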;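 also: 0% = compound-free wells with enzyme and 100% = wells lacking proteasome; stock transfer was 100 nL into about 20 µL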
# Target sequence (Q9Y5K5 whole entry, looked up): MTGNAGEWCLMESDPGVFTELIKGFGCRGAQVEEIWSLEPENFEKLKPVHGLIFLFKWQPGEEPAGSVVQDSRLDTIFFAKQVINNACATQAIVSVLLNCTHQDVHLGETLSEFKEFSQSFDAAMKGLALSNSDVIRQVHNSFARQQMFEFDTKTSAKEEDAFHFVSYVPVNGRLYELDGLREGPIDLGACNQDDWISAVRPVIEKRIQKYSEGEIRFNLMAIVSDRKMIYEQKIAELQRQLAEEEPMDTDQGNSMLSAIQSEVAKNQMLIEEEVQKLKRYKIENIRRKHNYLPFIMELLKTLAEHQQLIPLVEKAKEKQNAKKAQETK
#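 Material: Human UCH37 enzyme supplied as purified proteasome complex | Schedule: 30 min compound-proteasome preincubation then 25 min substrate reaction, room temperature | Detection: AMC fluorescence from Ub-AMC cleavage, excitation 355 nm, emission 460 nm | Benchmarks: Wells without proteasome as full block, compound-free enzyme plus substrate as uninhibited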
# FGF22 binding = FGF22 (human) thermal shift binding. 340,000 compounds, 1.5% hits. recombinant FGF22 thermal shift, SYPRO orange fluorescence; percent of sucrose octasulfate shift, DMSO zero. calls only at 9.99 µM. AID 651658;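 active = melting point raised past a set limit in the mean and every replicate; three in four hits are not shown here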
# Target sequence (Q9HCT0 whole entry, looked up): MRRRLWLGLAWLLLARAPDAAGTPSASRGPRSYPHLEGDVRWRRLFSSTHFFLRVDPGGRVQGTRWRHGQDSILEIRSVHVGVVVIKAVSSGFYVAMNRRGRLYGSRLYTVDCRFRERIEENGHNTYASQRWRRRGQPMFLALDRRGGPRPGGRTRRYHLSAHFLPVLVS
# HNF4A DNA FP = change in binding of human HNF4 alpha to DNA. HNF4a-FITC DNA binding, fluorescence polarization, 1 h. activity change, % at 10 µM. 360,000 compounds, 0.3% hits; in the data active = activity change above about 30%, passing the limit was not always enough;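 also: controls were the assay level and a saturating level of protein; the project sought stronger binding though the title names inhibitors; some compounds called inactive have numbers as strong as hits; positive values seem to mean higher polarization but the record does not say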
# ALR inh = blocks human ALR sulfhydryl oxidase activity. 290,000 compounds, 3.8% hits. purified ALR, DTT oxidation, H2O2 HRP-luminol luminescence. P55789. AID 485317. inhibition, % (concentration not given with the values);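 active = mean and each replicate at 75% or more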;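 also: stock transfer was 7.5 nL into about 7.5 µL; 0% = neutral wells and 100% = wells with inactivated enzyme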
# Target sequence (P55789 whole entry, looked up): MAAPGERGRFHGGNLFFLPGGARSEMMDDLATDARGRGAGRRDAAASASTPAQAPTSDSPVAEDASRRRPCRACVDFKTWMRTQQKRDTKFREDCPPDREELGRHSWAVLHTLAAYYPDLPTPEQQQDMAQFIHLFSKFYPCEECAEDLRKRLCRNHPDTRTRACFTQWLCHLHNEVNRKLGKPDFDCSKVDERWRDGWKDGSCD
# E coli growth = blocks Escherichia coli growth; OD600, 23 h; stronger effect = lower value; OD600 absorbance (concentration not given with the values); 330,000 compounds, 0.21% hits; AID 1053175;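 active = OD600 absorbance below the run mean of sample wells minus 3.6 SD, in any replicate, cut at about 0.56 in these data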;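 also: stock transfer was 300 nL into about 60 µL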
# rRNA inh HTS OD600 = recorded beside rRNA inh HTS, whose call it bears; OD600 change, %; measured here: OD600 growth;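 optical density of the mix in the first replicate; 0 = DMSO median and -100 = no signal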
# rRNA inh HTS RFP = second read-out of rRNA inh HTS, no call of its own (marks repeat the call); RFP signal change, %; measured here: RFP humanized mutant strains;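 first replicate; 0 = DMSO median and -100 = no signal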
# * marks the source's active call; other numbers are inactive results; i = inactive; / = not tested or not shown; + = active, no number. Some of the compounds tested (hit frequency here may not be typical).
SMILES,rRNA inh HTS,rRNA inh HTS OD600,rRNA inh HTS RFP,B2AR ag,UCH37 DUB inh,FGF22 binding,HNF4A DNA FP,ALR inh,E coli growth
COc1ccc(C)cc1S(=O)(=O)N(C)CC(=O)NCc1ccccn1,5.7,14.6,-3.5,2.1,1.5,i,-0.5,1.1,0.661
COc1ccc(Cc2nnc(NC(=O)c3ccc(OC)cc3OC)s2)cc1,-8.3,-9.0,3.0,-5.9,2.1,i,3.9,-9.7,0.678
CCC(C(=O)NC1CCCCC1)N(CC1CCCO1)C(=O)CNS(=O)(=O)c1ccc(OC)cc1 (stereo not drawn),/,/,/,-1.4,3.5,/,-1.4,/,0.693
O=C(c1ccco1)N1CCN(CCCCN2C(=O)c3ccccc3C2=O)CC1,6.0,2.8,-7.1,0.1,3.8,i,4.7,0.0,0.668
COc1cc(NC(=O)c2ccc(Cl)cc2Cl)ccc1NC(=O)c1cccs1,6.1,-1.1,-2.0,-12.0,-66.7,i,-1.2,-1.9,0.68
COc1cc(/C=C/C(=O)OCC(=O)NCc2ccco2)ccc1OCC#N,-4.4,-11.1,-0.3,-7.7,-10.0,i,-0.6,-5.6,0.684
Cc1ccc(NC(=O)c2ncn(CCCNCC3CCCO3)n2)cc1C (stereo not drawn),5.4,9.5,-2.5,-6.4,/,i,2.7,/,/
CC(=O)Oc1ccc2c(=O)oc(-c3ccccc3)nc2c1,6.5,-1.7,3.0,12.0,-36.0,i,-2.6,-0.4,0.684
COc1ccc(CN(C)CCc2ccccn2)c(OC)c1OC,/,/,/,3.4,2.7,/,8.6,-24.8,0.658
COc1cccc(N2CCN(C(=O)C3CCCN(S(=O)(=O)c4ccc5c(c4)oc(=O)n5C)C3)CC2)c1 (stereo not drawn),1.2,-9.4,-2.4,1.5,0.6,/,-7.2,12.7,0.656
Cc1cc(C)c(C)c(OCC(O)CN2CCN(c3ccccn3)CC2)c1 (stereo not drawn),-10.4,-6.2,1.0,-7.7,5.5,i,2.2,-0.3,0.675
COC(=O)COc1ccc(C2NC(=O)NC(c3ccccc3)=C2C(C)=O)cc1OC (stereo not drawn),/,/,/,-1.6,0.2,/,1.8,-6.6,0.687
O=C(NC(=S)Nn1cnc2c(cnn2-c2ccccc2)c1=O)c1ccc(Oc2ccccc2)cc1,/,/,/,-1.8,5.3,/,-0.3,1.3,0.697
Cc1ccc(-c2nnn(CCC(=O)Nc3ccc4c(c3)OCO4)n2)cc1,-1.2,4.9,-0.3,5.1,6.0,/,0.6,-8.0,0.698
COc1ccc(N(CC(=O)Nc2cccnc2)S(=O)(=O)c2ccccc2)cc1OC,-6.7,-12.2,3.1,-5.1,0.0,i,-4.2,/,0.649

# An excerpt from above in order of their number in rRNA inh HTS RFP, ascending.
SMILES,rRNA inh HTS,rRNA inh HTS OD600,rRNA inh HTS RFP,B2AR ag,UCH37 DUB inh,FGF22 binding,HNF4A DNA FP,ALR inh,E coli growth
O=C(c1ccco1)N1CCN(CCCCN2C(=O)c3ccccc3C2=O)CC1,6.0,2.8,-7.1,0.1,3.8,i,4.7,0.0,0.668
COc1cc(/C=C/C(=O)OCC(=O)NCc2ccco2)ccc1OCC#N,-4.4,-11.1,-0.3,-7.7,-10.0,i,-0.6,-5.6,0.684
CC(=O)Oc1ccc2c(=O)oc(-c3ccccc3)nc2c1,6.5,-1.7,3.0,12.0,-36.0,i,-2.6,-0.4,0.684

# (list continues)
SMILES,rRNA inh HTS,rRNA inh HTS OD600,rRNA inh HTS RFP,B2AR ag,UCH37 DUB inh,FGF22 binding,HNF4A DNA FP,ALR inh,E coli growth
COc1ccccc1-c1ccc(=O)n(CC(=O)NC(C)(C)C)n1,5.9,4.0,-7.4,14.4,2.5,i,-10.1,0.3,0.673
CCN(CC)C(=O)Cn1cnc2sc(C(=O)Nc3cc(OC)c(OC)c(OC)c3)c(C)c2c1=O,5.4,1.2,-0.5,-0.3,7.2,/,0.5,-1.6,0.71
COc1ccc(S(=O)(=O)N2CCc3ccccc32)cc1C(=O)N(CC(C)C)C1CCS(=O)(=O)C1 (stereo not drawn),-3.9,-4.1,0.3,3.6,2.4,i,-4.0,-4.6,0.686
CCC(C)Nc1nc(N)c([N+](=O)[O-])c(N2CCCCCC2)n1 (stereo not drawn),-7.0,-7.3,1.6,14.6,6.8,i,0.2,-11.0,0.637
COc1ccc(OC)c(S(=O)(=O)NCC(c2ccc(F)cc2)N2CCN(C)CC2)c1 (stereo not drawn),11.0,8.4,0.3,5.6,2.4,i,-0.4,-0.5,0.629
CC(C)Cc1nc(C(N)=O)c2[nH]c(=O)n(-c3ccc(F)cc3)c2n1,6.0,12.5,-1.7,-4.9,-18.6,i,0.9,-9.9,0.733
CCc1nnc(NC(=O)c2cc3ccccc3oc2=O)s1,/,/,/,-13.7,5.5,/,3.7,31.8,0.696
O=C(COc1ccc(F)cc1)N/N=C/c1cccc2cccnc12,0.2,-1.3,0.7,1.2,/,i,2.7,-9.4,/
CNS(=O)(=O)c1cccc(C(=O)OCC(=O)/C=C2/N(C)c3ccccc3C2(C)C)c1,-35.9,-52.5,29.6,2.4,-5.9,i,4.9,-17.6,0.654
CCn1nc(C(=O)Nc2nc(-c3ccccn3)cs2)c2ccccc2c1=O,14.2,8.6,12.6,3.2,-0.6,i,-0.7,-3.0,0.708
CNC(C)C(=O)NC(C(=O)N1CCCC1C(=O)NC1CCCc2ccccc21)C(C)C (stereo not drawn),3.2,5.8,5.9,-2.1,3.0,i,-1.2,-4.1,0.664
Cn1nnnc1Sc1ncnc2scc(-c3ccsc3)c12,-19.2,-9.0,-9.7,20.3,2.1,i,0.0,15.7,0.65
CC1CCN(c2nc(-c3ccc(F)cc3)cc(C(F)(F)F)n2)CC1,/,/,/,3.1,-30.4,/,-1.2,-5.6,0.697
CCN(C(=O)c1ccc2c(=O)n3c(nc2c1)CCCCC3)c1cc(OC)ccc1OC,-12.3,-2.2,0.3,-6.2,4.9,i,4.9,-8.5,0.682
CCNC(=S)N1CCN(S(=O)(=O)c2ccc(Cl)s2)CC1,-9.0,-16.3,-6.7,-1.5,1.3,i,1.1,-2.0,0.619
COc1ccc2ncc(OC(C)=O)cc2c1,0.2,-7.1,0.5,-7.9,-22.2,i,-2.5,/,0.636
CC(C)(C)C1CCC(C(=O)OCC(=O)c2ccc[nH]2)CC1 (stereo not drawn),/,/,/,0.4,0.9,/,-2.5,-9.8,0.664
Cn1c(CSc2nc3ccccc3s2)nnc1SCC(=O)NCc1cccnc1,/,/,/,-7.0,2.2,/,-2.2,-7.3,0.652
CN(CC1COCCO1)C(=O)c1cc(COc2c(F)cccc2F)on1 (stereo not drawn),8.1,9.6,2.0,-1.6,2.6,i,2.8,-7.0,0.694
Cc1ccc(-c2nnn(CC(=O)N3CCN(c4ccccc4)CC3)n2)o1,2.9,1.4,-2.9,1.7,-0.8,i,1.5,3.3,0.659
Cc1ccc(NC(=S)NC2CCCCC2)cc1S(=O)(=O)N(C)C,-13.9,-38.0,17.1,-10.1,4.3,+,-3.4,31.5,0.628
O=C(Nc1ccc(Cl)c(Cl)c1)C1CCN(C(=O)c2ccco2)CC1,-9.1,-38.5,13.5,17.8,5.8,i,2.8,16.3,0.624
COc1ccc(N(CC(=O)NC2CCCC2)C(=O)CCC(=O)Nc2cc(C)on2)cc1OC,-1.1,2.6,-2.2,-4.4,1.6,i,2.2,-3.3,0.683
CCC(=O)N1CCN(c2ccccc2NC(=O)COc2cccc(C)c2)CC1,-38.2,-32.8,-5.3,3.7,-0.5,/,0.4,-8.8,0.69
Cc1nc2ccc(NC(=O)c3oc4ccc(F)cc4c3C)cc2s1,/,/,/,7.2,-40.0,/,8.3,/,0.658
O=C(CCCOc1ccccc1)NC(=S)Nc1ccccc1,5.4,-7.8,-4.4,4.2,4.8,i,-4.0,-9.3,0.711
CC(C)(C)OC(=O)NCCCCCc1nnc(SCC(N)=O)o1,/,/,/,-2.4,2.8,/,2.7,/,0.702
CCN(C(=O)COC(=O)c1ccc(OC)c(S(=O)(=O)N(C)Cc2ccccc2)c1)C1CCS(=O)(=O)C1 (stereo not drawn),-1.9,-1.7,-1.2,-8.4,0.3,i,4.2,-2.4,0.612
CCOC(=O)C(Cc1ccc(NC(C)=O)cc1)N1C(=O)c2ccccc2C1=O (stereo not drawn),2.4,-4.5,-1.7,-17.1,4.0,i,-3.1,-12.0,0.724
CCN1/C(=C2/SC(=S)N(NC(C)=O)C2=O)Sc2ccc(OC)cc21,10.0,-8.9,53.4,5.3,1.9,i,16.0,66.6,0.687
COc1cc(-c2onc3ccc(Br)cc23)cc(OC)c1OC,-9.0,-18.7,-1.4,-10.8,-28.1,i,43.0*,1.3,0.706
O=C(NCCCO)C(=O)NCCc1ccc(Cl)cc1,/,/,/,6.2,2.2,/,-1.0,-2.8,0.67
CC(C)(C)NC(=O)CN1CCCN(C(=O)c2cccc(S(=O)(=O)N3CCc4ccccc43)c2)CC1,-5.0,-2.7,5.6,-0.2,-0.6,i,-0.5,-2.7,0.703
Cc1c(NC(=O)C2CCCCN2S(=O)(=O)c2ccc(Cl)cc2)c(=O)n(-c2ccccc2)n1C (stereo not drawn),8.1,5.7,-0.1,-17.0,2.9,i,0.1,-0.2,0.73
COc1ccc(CNC(=O)COC(=O)c2ccc(F)c(S(=O)(=O)N3CCOCC3)c2)cc1,1.4,8.5,0.5,6.6,-1.1,i,0.0,-3.1,0.663
CC1C=CCC2C(=O)N(c3cccc(C(=O)Nc4ccc(F)cc4)c3)C(=O)C12 (stereo not drawn),3.5,5.0,-0.7,-6.8,4.7,i,3.2,-0.6,0.656
COc1cccc2cc(-c3cn4cccc(C)c4n3)c(=O)oc12,/,/,/,-10.6,-63.6,/,1.4,7.7,0.711
Cc1ccc(NC(=O)COC(=O)CCn2c(C)csc2=O)cc1S(=O)(=O)N1CCOCC1,3.7,2.0,1.9,1.9,-0.8,i,-1.6,3.8,0.708
NC1=NC[C@H](Cc2ccccc2)N1CCc1cccc(F)c1,/,/,/,1.1,-1.3,i,9.9,-28.7,/
Cc1cccc(NC(=O)Cn2c(=O)oc3ccccc32)c1,/,/,/,-2.9,0.7,/,0.8,-2.8,0.749
CN1CCN(S(=O)(=O)c2ccc(Oc3ccc(F)c(Cl)c3)nc2)CC1,13.9,8.5,1.8,1.6,3.0,i,-1.1,-19.1,0.679
O=C(CN(C(=O)CCC(=O)Nc1nccs1)c1ccccc1F)NCc1ccccc1,4.9,15.8,-1.3,6.2,-1.0,i,0.3,2.8,0.714
O=C(NCc1cccc(Cl)c1)NC(=O)c1csc([N+](=O)[O-])c1,13.7,3.6,-2.2,-3.3,1.0,i,-2.1,-1.4,0.689
O=S(=O)(Nc1nc2ccccc2nc1Cl)c1ccccc1C(F)(F)F,0.6,-13.7,0.5,7.3,-10.6,i,-3.5,-5.0,0.669
COc1cccc(-c2cc(C(F)(F)F)n3ncc(S(=O)(=O)c4ccccc4)c3n2)c1,/,/,/,3.0,i,/,-0.3,0.0,0.782
CC(=O)Nc1ccc(NC(=O)CSc2nnc(-c3ccco3)n2Cc2ccco2)cc1,/,/,/,-0.9,4.7,/,-0.1,-4.0,0.72
N#Cc1ccc(NC(=S)NC(=O)C2CCCCC2)cc1,-11.6,-8.0,-1.0,-3.2,0.6,i,1.9,9.6,0.711
CCN1C(=O)CC(c2ccc(OC(C)C)cc2)C1=O (stereo not drawn),12.0,7.7,-0.3,-3.9,3.3,i,3.2,31.7,0.69
COc1ccc(-n2nc(C(=O)NCC(=O)NC3CCCCCC3)c3ccccc3c2=O)cc1OC,-6.1,-9.0,-1.3,9.6,-1.4,i,1.6,1.0,0.658
Cn1nc(C(=O)NCC(c2cccs2)N2CCOCC2)c2ccccc2c1=O (stereo not drawn),-2.1,1.0,-2.5,-8.4,1.3,i,6.0,-0.6,0.673

# Compound activity as filed in PubChem.
